# H5N1 CPE: antiviral screen in MDCK cells, H5N1 avian flu | cytopathic effect, luminescence, 72 h; stronger effect = higher value; no value below 0 was filed and about half of the inactive calls have no number; reference of the scale not given here | AID 740 | inhibition, % at 50 µM | 0.07% of 96,000 active; in the data active = inhibition above about 25%
# The depositor's hits bear a star; i = inactive. This is a subset (hit frequency here may not be typical).
SMILES,H5N1 CPE
CC1(C)Cc2c(c(-c3ccccc3)nc3[nH][nH]c(=O)c23)CO1,1.6
COc1ccc(OC)c(C2=NOC(C(=O)NCCN3CCOCC3)C2)c1 (stereo unspecified),i
Cc1cc(N)n(-c2ncnc3scc(-c4ccccc4)c23)n1,0.2
COC(=O)c1ccc(NC(=O)c2ccccc2)o1,i
CN(c1ccccc1C(=O)N1CCc2ccccc2C1)S(C)(=O)=O,0.4
Cc1ccc2c(CC(=O)NC3=NCCS3)coc2c1,0.2
CC(=O)c1cn(CC(=O)NCc2cccnc2)c2ccccc12,0.5
CC(=O)c1ccc(OCC(O)CN2CCOCC2)cc1 (stereo unspecified),1.0
O=C(CCC(=O)OCC(=O)c1ccc(Br)cc1)Nc1cccc2cccnc12,i
c1ccc(N2CCN(C3CCSC3)CC2)cc1 (stereo unspecified),1.5
Nc1nc(SCC(=O)NCC2CCCO2)n[nH]1 (stereo unspecified),1.8
CCCC1(CCC)NC(=O)N(CC(=O)N2CCN(C(=O)c3ccco3)CC2)C1=O,0.2
O=S(=O)(Cc1ccccc1)N1CCN(C/C=C/c2ccccc2)CC1,0.8
COc1ccccc1CNC(=O)c1cnn2c(C(F)F)cc(C)nc12,0.6
O=C(NN1C(=O)C2C(C1=O)C1C=CC2C12CC2)c1ccncc1 (stereo unspecified),0.1
O=C(NCc1cccs1)C(Cc1ccccc1)NS(=O)(=O)c1cccs1 (stereo unspecified),0.2
O=C(Nc1ccc(N2CCOCC2)cc1N1CCOCC1)c1cccs1,i
CCS(=O)(=O)N1CCCC(C(=O)NC2CCCC2)C1 (stereo unspecified),i
O=C(O)CCN1C(=O)C2CCCCC2C1=O (stereo unspecified),i
COc1cccc(OC)c1OCCCSc1nc(C)cc(=O)[nH]1,0.9
COC(=O)CSc1nnc2c3c4c(sc3nc(-n3nc(C)cc3C)n12)COC(C)(C)C4,0.1
COc1cccc(NS(=O)(=O)c2c(C)cc(C)cc2C)c1,i
Cc1c(NC(=O)CN2CC(C)OC(C)C2)c(=O)n(-c2ccccc2)n1C (stereo unspecified),i
CN(C(=O)CSc1nnnn1-c1ccccc1)C1CCCCC1,0.9
CCCN1CCN(C(=O)C2CCN(S(=O)(=O)c3ccc4c(c3)oc(=O)n4C)CC2)CC1,2.4

# Compounds above that have a furan ring, fused or not, in the order listed:
SMILES,H5N1 CPE
COC(=O)c1ccc(NC(=O)c2ccccc2)o1,i
Cc1ccc2c(CC(=O)NC3=NCCS3)coc2c1,0.2
CCCC1(CCC)NC(=O)N(CC(=O)N2CCN(C(=O)c3ccco3)CC2)C1=O,0.2

# Continued.
SMILES,H5N1 CPE
Cc1ccc(CNC(=O)/C(C#N)=C/c2ccc(C)s2)cc1,i
CCc1ccccc1NC(=O)NC1CC2CCC(C1)N2Cc1cccs1 (stereo unspecified),i
CC1(C)C(O)=C(c2nc3ccccc3[nH]2)C(=N)N1c1ccccc1,i
N#Cc1c(N)nc2c(c1-c1ccncc1)CCCC2,i
COCCn1c(-c2ccc(OC)cc2)cnc1N,i
CCOC(=O)CC1C(=O)NCCN1C(=O)Nc1ccccc1 (stereo unspecified),i
CN(C)S(=O)(=O)c1ccc(NC(=O)c2cc3ccccc3o2)cc1,i
C[n+]1cnn2c1SCC1(COC1)C2,i
O=C1CN(C(=O)CN2CCCC2)C(c2ccccc2)c2cc(Br)ccc2N1 (stereo unspecified),0.3
COc1ccc(CN2C(=O)c3ccccc3C(/C=N\OCc3ccc(C)cc3)C2=O)cc1 (stereo unspecified),6.0
COc1cc(/C=N/n2cnnc2)ccc1OC(=O)c1cccnc1,1.9
O=c1[nH]c2ccccc2c2nc3ccccn3c12,1.1
CCOC(=O)CNC(=O)CSc1nc2nc(C)c(Br)cc2[nH]1,1.6
CC(=O)c1c(C)[nH]c(C(=O)NCc2ccccn2)c1C,0.3
Cc1ccc2c(c1)C(c1ccc(N3CCOCC3)cc1)=NNC(c1cccs1)=N2,i
Cc1cc(OCC(=O)NCCO)ccc1Cl,1.4
Cc1ccc(CNC(=O)c2coc(=O)c3ccccc23)o1,0.2
COc1ccc2cc(CN(CCCN3CCOCC3)Cc3nnnn3C3CCCC3)c(=O)[nH]c2c1,1.6
CCN(CC)C(=O)C1CCN(S(=O)(=O)c2ccc(C3CNC(=O)C3)cc2)CC1 (stereo unspecified),0.7
O=S(=O)(c1ccc(Cl)cc1)N1CCn2c1nc1ccccc12,0.7
CCCCCCN1Cc2ccccc2C1,0.1
CCc1cc2c(=O)c(-n3cnc4ccccc43)coc2cc1O,i
CC1CCN(c2c([N+](=O)[O-])nn(-c3ccc4c(c3)OCCO4)[n+]2[O-])CC1,i
COc1ccc(-n2nnnc2SCC(=O)Nc2nnc(C)s2)cc1,i
CN(C)S(=O)(=O)N(CC(=O)N1CCOCC1)c1ccccc1,i

# (more compounds)
SMILES,H5N1 CPE
Cc1cccc2cc(C#N)c(NCCNC(=O)NC3CCCCC3)nc12,i
CCN(CC)S(=O)(=O)c1cccc(C(=O)OCC(=O)N2CC(=O)Nc3ccccc32)c1,1.4
Cc1cccc(CN2CCC(CNC(=O)CCNC(=O)Cn3ccc4ccccc4c3=O)CC2)c1,1.2
COc1cccc(C2=CC(c3ccc(OC)c(OC)c3OC)n3nnnc3N2)c1 (stereo unspecified),1.0
COc1cccc(NC(=O)CSCc2n[nH]c(=O)[nH]2)c1,i
C=CCn1c(SCC(=O)c2ccc(OC)cc2)nnc1-c1cc2cccc(OC)c2o1,i
CCCc1cc(=O)[nH]c(SCC(N)=O)n1,i
COc1cc(C(=O)NCCN2CCOCC2)cc(OC)c1OC,0.9
O=C(NC1CCCCCCC1)C1=COCCO1,0.6
Cc1ccc2c(c1)N(CCC(=O)NCCN1CCOCC1)C(=O)CO2,i
CNC(=O)/C(=C\c1ccc([N+](=O)[O-])cc1)NC(C)=O,1.0
O=C(CSC1c2ccccc2C(=O)N1c1ccccc1)N1CCOCC1 (stereo unspecified),i
COC(=O)CSc1c(-c2ccccc2)c2cc(Cl)ccc2[nH]c1=O,5.2
COCCCNc1nc2c(c(=O)[nH]c(=O)n2C)n1CCCc1ccccc1,0.1
CCC(C)NC(=O)CS(=O)Cc1nc(-c2ccccc2C)oc1C (stereo unspecified),0.9
O=C(COc1ccccc1O)c1cccs1,0.8
CC(C)[C@H](NC(=O)NCc1cccs1)C(=O)O,0.2
CCCCN(C)C(=O)CCC(=O)Nc1ccc2nc(N3CCOCC3)cc(C)c2c1,0.5
Cc1oc2ccc(O)c(CN3CCOCC3)c2c1C(=O)c1ccc(Cl)cc1,i
Cc1ccc2nc(-c3ccc(NC(=O)CN(c4ccccc4C)S(C)(=O)=O)cc3)sc2c1,0.2
Nc1nnnn1/N=C\c1ccc(Cl)c([N+](=O)[O-])c1,1.0
COc1ccc(OCCn2cncn2)cc1,i
CC(C)NC(=O)c1noc2cc([N+](=O)[O-])ccc12,i
CCCS(=O)(=O)N1CCC(C(=O)N2CCOCC2)CC1,i
Cc1nc(NC(=O)c2ccc(Br)o2)sc1C,i

# A draw from above in order of SMILES length, ascending.
SMILES,H5N1 CPE
CCCc1cc(=O)[nH]c(SCC(N)=O)n1,i
COc1cccc(NC(=O)CSCc2n[nH]c(=O)[nH]2)c1,i
COC(=O)CSc1c(-c2ccccc2)c2cc(Cl)ccc2[nH]c1=O,5.2

# The listing continues.
SMILES,H5N1 CPE
NNC(=O)c1cn2ccccc2n1,0.8
COc1ccc(-c2cc(C(F)(F)F)n3nc(C(=O)N4CCCCC4)cc3n2)cc1OC,1.3
Cc1ccsc1CNn1cnnc1SCc1ccccc1F,1.9
Cc1cccc(NC(=O)CSc2nnnn2C)n1,i
Cn1c2ccccc2c2nnc(SC3CCOC3=O)nc21 (stereo unspecified),1.1
COC(=O)c1c(NC(=O)C(C)(C)C)sc2c1C(C(=O)OC)CC2 (stereo unspecified),1.9
O=C(CSc1nnc(-c2cccs2)o1)NCC1CN(Cc2ccccc2)CCO1 (stereo unspecified),1.5
CCS(=O)(=O)N1CCN(Cc2ccncc2)CC1,0.7
COC(=O)c1cc(NS(=O)(=O)c2ccc(N3CCCCC3)c([N+](=O)[O-])c2)cc(C(=O)OC)c1,i
O=C(O)CSc1nc2ccccc2c(=O)[nH]1,i
Cc1c(C(=O)OC(C)C(C)C[N+](C)(C)C)oc2ccccc12 (stereo unspecified),i
CCCc1cc(-c2nc(N)ncc2-c2ccc3c(c2)OCCCO3)c(O)cc1OC,1.8
Cc1ccccc1Cn1cc(NC(=O)c2cc3nc(-c4ccco4)cc(C(F)(F)F)n3n2)cn1,i
CC(CCc1ccccc1)NC(=O)c1cccs1 (stereo unspecified),i
COc1ccc2c(CC(=O)N3CCN(S(=O)(=O)c4cccs4)CC3)coc2c1,1.8
O=C(NCc1ccccc1)c1cccc(OCC(=O)N2CCN(C(=O)c3ccco3)CC2)c1,i
CC(C)(C)c1n[nH]c(=S)n(N)c1=O,i
C=CCn1c(CNC(=O)c2ccco2)nnc1SCC(=O)N1c2ccccc2Sc2ccccc21,1.2
COc1ccc(NC(=O)CSc2nccn2-c2ccccc2)cc1,2.1
CCOC(=O)c1c(-c2ccc(C)o2)csc1NC(=S)NC(=O)N(C)C,2.3
COC(=O)/C=C1\S/C(=N/NC(=O)c2ccccc2)NC1=O,0.8
CCCOc1ccc(N2C(=O)CC(NCc3ccncc3)C2=O)cc1 (stereo unspecified),i
CCNc1nc(CN2CCOCC2)nc2sc3c(c12)CCC3,0.3
CCOC(=O)Cn1c(=O)oc2cc(S(=O)(=O)NCc3cccs3)ccc21,2.1
CCC(CC)c1nc2cc(OC)c(OC)cc2c(=O)o1,0.4

# More results follow.
SMILES,H5N1 CPE
COc1ccc(C(CNC(=O)c2ccccc2C)N2CCCC2)cc1 (stereo unspecified),i
CC1CN(Cc2nc3c(c(=O)n(C)c(=O)n3C)n2CCCO)CC(C)O1 (stereo unspecified),0.6
Cc1ccc(SCC(=O)Nc2ncc(C)s2)cc1,i
O=C(Cc1cccs1)N(c1ccccc1)C1C=CS(=O)(=O)C1 (stereo unspecified),1.3
Cc1cccc(C)c1NC(=O)C1(NC(=O)c2cnccn2)CCCCC1,0.3
COc1cc(OC)cc(C(=O)N2CCN(C(=O)COc3ccc4ccccc4c3)CC2)c1,i
NS(=O)(=O)c1ccc(NC(=O)COC(=O)CCNC(=O)NC23CC4CC(CC(C4)C2)C3)cc1,0.8
CCOC(=O)c1[nH]c2cc3c(cc2c1NC(=O)CN1CCc2ccccc2C1)OCO3,i
O=C(Nc1ccc(N2CCCCC2)c(Cl)c1)c1ncn[nH]1,1.3
COc1cc(OC)cc(C(=O)N2CCN(C(=O)c3cccc(F)c3)CC2)c1,i
O=C(C1CC1)N(Cc1ccco1)c1nc(-c2ccccc2)cs1,0.4
CN=C1SC(CC(=O)Nc2cccc(Cl)c2Cl)C(=O)N1C (stereo unspecified),i
CCCCOC(=O)NCN1C(=O)C2C3C=CC(C3)C2C1=O (stereo unspecified),1.0
Cc1ccn2c(C(=O)CSc3ccc(Cl)cc3Cl)c(C)nc2c1,1.1
CCOc1ccc(N(CCC#N)S(=O)(=O)c2ccc(OC)cc2)cc1,0.1
O=C(CN1CCN(c2ncc(C(F)(F)F)cc2Cl)CC1)NC(=O)NCc1ccccc1,0.5
Cc1[nH]nc(-c2ccc(OCc3cnn(-c4ccccc4)c3)cc2O)c1Oc1ccccc1F,i
CCc1c(O)nc(SCC(=O)Nc2ccc3c(c2)CCC3)[nH]c1=O,0.4
COc1ccc(C(=O)Nc2nc3cc(OC)c(OC)cc3c(=O)[nH]2)cc1,0.5
O=C(OCc1ccc(Cl)cc1)c1cnccn1,i
CC(=O)c1cccc(N(C(=O)c2cnccn2)C(C(=O)NCc2ccccc2)c2ccco2)c1 (stereo unspecified),i
CCOc1ccccc1N(C(=O)CNS(=O)(=O)c1ccccc1)C(CC)C(=O)NCc1ccco1 (stereo unspecified),0.5
CCCCN(N=Nc1nonc1OC)c1nonc1OC,i
O=C(c1cccnc1)N1CCCc2ccccc21,i
COC(=O)c1ccccc1NC(=O)NCc1cccnc1,i

# As a short view, 6 of the compounds above.
SMILES,H5N1 CPE
COc1ccc(C(CNC(=O)c2ccccc2C)N2CCCC2)cc1 (stereo unspecified),i
CC1CN(Cc2nc3c(c(=O)n(C)c(=O)n3C)n2CCCO)CC(C)O1 (stereo unspecified),0.6
Cc1ccc(SCC(=O)Nc2ncc(C)s2)cc1,i
O=C(Cc1cccs1)N(c1ccccc1)C1C=CS(=O)(=O)C1 (stereo unspecified),1.3
Cc1cccc(C)c1NC(=O)C1(NC(=O)c2cnccn2)CCCCC1,0.3
COc1cc(OC)cc(C(=O)N2CCN(C(=O)COc3ccc4ccccc4c3)CC2)c1,i

# Part of the list above, as labelled records.
> CC(=O)c1cccc(N(C(=O)c2cnccn2)C(C(=O)NCc2ccccc2)c2ccco2)c1 (stereo unspecified)
  H5N1 CPE: i

> CCOc1ccccc1N(C(=O)CNS(=O)(=O)c1ccccc1)C(CC)C(=O)NCc1ccco1 (stereo unspecified)
  H5N1 CPE: 0.5

> CCCCN(N=Nc1nonc1OC)c1nonc1OC
  H5N1 CPE: i

> O=C(c1cccnc1)N1CCCc2ccccc21
  H5N1 CPE: i

# The results go on:
SMILES,H5N1 CPE
COCCNC(=O)CN(c1ccc(C)cc1)S(=O)(=O)c1ccccc1,0.1
O=C(Nc1nnc(C2CCCC2)s1)C1CCC1,0.8
Oc1ccccc1Cn1c(-c2ccccc2O)nc2ccccc21,i
c1ccc(Oc2cccc(CN3CCOCC3)c2)cc1,2.1
Nc1nonc1C(=O)NCCN=Cc1cc(Cc2ccccc2)cc(Br)c1O,i
N=C1SCC(=O)N1c1nc(-c2ccccc2)cs1,0.2
O=c1c2[nH]c3ccccc3c2ncn1Cc1ccncc1,0.1
CCc1ccc(CN(C)CCc2ccccn2)cc1,i
C/C(CCc1ccc2c(c1)OCO2)=N\N=C(/N)SC1CC(=O)N(c2ccc(Cl)cc2)C1=O (stereo unspecified),i
Brc1ccc2[nH]ncc2c1,0.4
CCOc1ccc(C(CCc2ccccc2)NC(=O)c2ccccc2OC)cc1OCC (stereo unspecified),2.9
N#Cc1cccc(-n2nnnc2-c2ccc3c(c2)OCO3)c1,0.8
CCn1c(=NC(=O)c2ccc(S(=O)(=O)N3CCOCC3)cc2)sc2cccc(OC)c21,i
O=C1N=C(c2ccccc2)S/C1=C\c1cccs1,0.2
COc1cccc(Cn2cnc3c(NS(=O)(=O)c4cccc(Cl)c4Cl)c(C)c(C)cc32)c1,i
CC(=O)c1cn(CC(=O)NCC2CCCO2)c2ccccc12 (stereo unspecified),i

# Bioassay records as filed in PubChem BioAssay.
